HSD17B inhib: qHTS Assay for Inhibitors of HSD17B4, hydroxysteroid (17-beta) dehydrogenase 4; 3-hydroxyacyl-CoA dehydrogenase type-2 (Homo sapiens), Q99714; recombinant HSD17B10, NADH fluorescence kinetic; many of its hits are not listed in these tables; Potency, µM (top dose mostly 57.1 µM), without a hit: at the highest dose activity change, negative = inhibition, hits mostly inhibitors; 75,000 tested, 7.6% active; active = well fitted inhibition curve with a large enough effect; inconclusive = small, poorly fitted or top-dose-only effect; inactive = no such curve, though single readings can be large or run the other way;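 also: the protocol describes HADH2 (HSD17B10) and not the HSD17B4 of the title; nearly all actives have a fitted effect of over 70% in size; most hits overshoot -100% by far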
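Activity followed as NADH fluorescence increase (ex 360, em 450 nm) every 30 seconds for 4 min, using final 90 uM beta-hydroxybutyryl CoA and 1 mM NAD+. Recombinant His-tagged enzyme, 20 nM, pH 9.0 Tris buffer, 15 min compound preincubation.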
* hit, by the source's call; ? = inconclusive; & = joins results of further samples; [ ] = dose if it differs, or a comment. % is scaled to controls: 0 for no effect and ±100 for the full control effect; potency is read from the fitted curve at half-maximal effect.

SMILES	HSD17B inhib
CN1CCN(C(=O)c2cc(Cl)ccc2Cl)CC1	5%
CCCCn1c(CNC(=O)C(C)(C)C)nc2ccccc21	8%
NCCNS(=O)(=O)c1cccc2cnccc12	-22%&-5%
CCOC(=O)c1ccc(NC(=O)c2c(O)c3ccccc3n(C)c2=O)cc1	-7%
CC(C)(C)n1nnnc1CN(Cc1ccco1)Cc1cc2cc3c(cc2[nH]c1=O)OCO3	6%
Cc1cc2oc(=O)cc(COC(=O)Cn3cnnn3)c2cc1C(C)C	-30%
CCS(=O)(=O)N1CCN(C2CCC(c3ccccc3)CC2)CC1 (stereo not drawn)	-13%
COc1cc(C)c(-c2cc(C(=O)O)c(C)o2)cc1C(C)C	?
Cc1cccc(-n2c(Cc3cc(=O)[nH]c(=O)[nH]3)nnc2SC(C)C)c1	?
O=C(CSCc1ccco1)Nc1cc(C(F)(F)F)ccc1N1CCOCC1	-15%

Filtered by structure, the compounds so far with an NH in an aromatic ring.
SMILES	HSD17B inhib
CC(C)(C)n1nnnc1CN(Cc1ccco1)Cc1cc2cc3c(cc2[nH]c1=O)OCO3	6%
Cc1cccc(-n2c(Cc3cc(=O)[nH]c(=O)[nH]3)nnc2SC(C)C)c1	?

Next section
SMILES	HSD17B inhib
CN1C(=O)OC2(C)CCc3ccccc3C12C (stereo not drawn)	4%
CCOC(=O)c1csc(Nc2nc3ccc(F)cc3s2)n1	-21%
Cc1ccccc1OCC(=O)N(Cc1nc(-c2ccccc2)no1)C(C)C	-6%
COCCNC(=O)c1ccc(CS(=O)(=O)c2ccc(OC)cc2)o1	2%
O=C1NCN(c2ccccc2)C12CCN(c1nnnn1-c1ccccc1)CC2	5%
COC(=O)c1ccccc1NC(=O)c1c(O)c2c([nH]c1=O)CCCC2	-12%
CCOC(=O)C1Cn2c(nc3c(c2=O)C(C)(CC)Cc2ccccc2-3)S1 (stereo not drawn)	?
O=C(OCC(=O)c1cccs1)c1ccccc1	10%
N=c1sccn1CC(=O)Nc1cccc(Oc2ccccc2)c1	-3%
CCc1cc(C(=O)c2ccccc2OC)c(N)s1	-21%
COc1ccc(CCNC(=O)CSc2nnc(CNc3ccc(Cl)cc3)o2)cc1OC	2%
CC1(C)Oc2ccc(NC(=O)C3COc4ccccc4O3)cc2O1 (stereo not drawn)	-13%
O=C(C1CCCO1)N1CCN(C(c2ccccc2)c2ccccc2)CC1 (stereo not drawn)	0%
CC1=C(C(=O)OCc2ccccc2)C(C2CC2)NC(=O)N1CCCCCC(=O)O (stereo not drawn)	-10%
CCOC(=O)N1CCN(C(=O)CN(c2ccc(Oc3ccccc3)cc2)S(C)(=O)=O)CC1	2%
O=C1c2ccc(Oc3ccc4c(c3)C(=O)N(CCCO)C4=O)cc2C(=O)N1CCCO	-1%
COc1ccc(C(c2sc3nc(C)nn3c2O)N2CCC(C(N)=O)CC2)cc1OC (stereo not drawn)	?
O=[N+]([O-])c1cc(Cl)c(Cl)c(Cl)c1Cl	1%
COc1ccc(Cl)cc1N1C(=O)C2CCCN2C1c1ccc(F)c(F)c1 (stereo not drawn)	1%
O=C(NCC1COc2ccccc2O1)c1ccc(NC(=O)c2ccco2)cc1 (stereo not drawn)	-20%

Exported as a markdown table: part of the list above
| Compound | HSD17B inhib |
| --- | --- |
| O=C(NCC1COc2ccccc2O1)c1ccc(NC(=O)c2ccco2)cc1 (stereo not drawn) | -20% |
| O=C(C1CCCO1)N1CCN(C(c2ccccc2)c2ccccc2)CC1 (stereo not drawn) | 0% |
| CC1(C)Oc2ccc(NC(=O)C3COc4ccccc4O3)cc2O1 (stereo not drawn) | -13% |
| CC1=C(C(=O)OCc2ccccc2)C(C2CC2)NC(=O)N1CCCCCC(=O)O (stereo not drawn) | -10% |
| COc1ccc(C(c2sc3nc(C)nn3c2O)N2CCC(C(N)=O)CC2)cc1OC (stereo not drawn) | ? |

Back to the main list with the 2 entries that preceded the break.
SMILES	HSD17B inhib
COc1ccc(Cl)cc1N1C(=O)C2CCCN2C1c1ccc(F)c(F)c1 (stereo not drawn)	1%
O=C(NCC1COc2ccccc2O1)c1ccc(NC(=O)c2ccco2)cc1 (stereo not drawn)	-20%
COc1ccc(CN(Cc2ccccn2)S(=O)(=O)c2ccc(-n3cnnn3)cc2)cc1	-3%
O=C(Nc1cccnc1)c1c(F)c(F)c(F)c(F)c1F	3%
COc1cc(C2C(C#N)=C(N)Oc3cc(N(C)C)ccc32)cc2c1OCO2 (stereo not drawn)	-14%
Cc1ccc(S(=O)(=O)N2CCC(C(=O)N3CCN(Cc4ccccc4)CC3)CC2)cc1	2%
COC(=O)c1ccccc1S(=O)(=O)Nc1ccc(OC)nc1	3%
Cc1cc(C)cc(NC2=NC3(CCCCC3)N=C(N)N2)c1	10%
COCCNS(=O)(=O)c1cc(OC)c(Cl)cc1Cl	0%
Cc1[nH]c2ccccc2c1C(=O)CN1CCSCC1	-1%
O=C(NC12CC3CC(CC(C3)C1)C2)c1ccc(S(=O)(=O)N2CCOCC2)cc1	8%
CCOC(=O)COn1c(=O)c(=O)n(O)c2ccccc21	-6%
CCOC(=O)C1=C(C)NC(C)=C(C(=O)OCC)C1c1ccccn1	?
NC(=O)C1CCN(C(=O)CN(c2cccc(C(F)(F)F)c2)S(=O)(=O)c2ccccc2)CC1	3%
Clc1cccc2sc(N3CCN(c4ccccc4)CC3)nc12	0%
CS(=O)(=O)c1cccc(C(=O)NCc2ccccc2)c1	-5%
COc1cc(NC(=O)c2noc3c2CCC3)c(OC)cc1Cl	4µM*
O=c1[nH]c(CSc2nnc(COc3ccccc3)n2-c2ccccc2)nc2ccccc12	6%
Cc1nc2cc(-c3cccc(F)c3)nn2c(C)c1CCC(=O)NC(C)CCc1ccco1 (stereo not drawn)	?
O=C(Nc1ccon1)c1ccc(Cl)s1	-21%
CCCc1cc(C(=O)OC)c(NC(=O)OCC)s1	-9%
Cc1c(C(=O)NCC2COc3ccccc3O2)oc2ccc(S(=O)(=O)N3CCOCC3)cc12 (stereo not drawn)	?
Cc1cccc(-n2c(SCc3cc(=O)n4ccsc4n3)nc3ccccc32)c1	?
CCCc1cc(C(=O)NCCc2ccccc2)no1	5%
COc1ccc(NC(=O)Cn2cccc2)cc1Cl	0%
O=C1C(=O)N(Cc2ccc(Cl)c(Cl)c2)c2ccccc21	-81%
COc1ccc(N2CCN(C(=O)c3ccc(C)cc3Cl)CC2)cc1	0%
Cc1ccc(C)c(N2CCN(C(=O)C3CCN(c4nnc(N5CCCC5=O)s4)CC3)CC2)c1	0%
COC(=O)C(C(=O)N1CCN(C)CC1)C1CCCCCC1 (stereo not drawn)	-5%
CC[C@H]1CC[C@H]2[C@@H]3CC=C4C[C@H](OC(C)=O)[C@@H](N)C[C@@]4(C)[C@H]3CC[C@@]12C	9%[11.4 µM]
Cc1cc(N2CCOCC2)nc2ccc(NC(=O)CCC(=O)N3CCC(C)CC3)cc12	16µM*
Cc1cc(NC(=O)Cc2ccccc2)no1	-1%
O=C(CN1C(=O)CSC1=O)Nc1ccc(N2CCOCC2)cc1	3%
CCOC(=O)c1c(N)sn(-c2ccccc2C)c1=S	?
O=S(=O)(c1cccs1)N1CCN(c2ccccn2)CC1	-19%
CCOC(=O)CS(=O)(=O)c1nc(-c2ccc(F)cc2)cc(C(F)(F)F)n1	25µM*
Cc1ccc(S(=O)(=O)NC(C)(C)CSc2nnc(N)s2)cc1	1%
COc1cccc(OC)c1C(=O)NC1C(=O)N2C1SC(C)(C)C2C(=O)O (stereo not drawn)	3%
Cn1c(-c2cccc(Br)c2)cnc1NCc1cccnc1	0%
O=C(Nc1cccc(F)c1)c1ccc(S(=O)(=O)N2CCCC2)cc1	2%
O=C1SC(c2ccccc2)=N/C1=C/c1ccco1	25µM*
O=C(c1ccc(F)cc1F)N(Cc1ccccn1)Cc1ccco1	4%
CN(C)c1ncnc2ccc(-c3cccc(C#N)c3)cc12	-3%
CCOc1cc(-c2c(C)c(C)nc(N)c2C#N)ccc1O	-6%
O=C(CN(C1CCCCC1)S(=O)(=O)c1ccc(Cl)cc1)NCc1cccnc1	2%
CCOc1ccc2[nH]cc(C(=O)O)c(=O)c2c1	6%
CN(C)Cc1ccccc1-c1cncnc1NCc1cccs1	-1%
COc1cc(NS(=O)(=O)c2cc(C)ccc2OC)c(OC)cc1Cl	-11%
O=C(O)CCCC(=O)NCCCc1ccccc1	12%
COc1ccc(S(=O)(=O)Nc2ccccc2OC)cc1C	3%
Cc1cc2oc(C(=O)Nc3c(C)n(C)n(-c4ccccc4)c3=O)c(C)c2cc1C	-6%
Cc1cc(C)c(C#N)c(SCC(=O)c2cccs2)n1	32%[activator]
Next section
SMILES	HSD17B inhib
COc1ccc(C2C(C(=O)N3CCN(c4ccc(OC)cc4)CC3)c3ccccc3C(=O)N2C)cc1 (stereo not drawn)	-6%
NS(=O)(=O)c1ccc(N=C2C(=O)Nc3ccccc32)cc1	2%[11.4 µM]
CC(=O)c1c(C)nn(C(C)CC(=O)O)c1C (stereo not drawn)	11%
Cc1occc1C(=O)Nc1ccc(S(=O)(=O)N2CCN(C)CC2)cc1	-4%
CCOC(=O)c1cnn(-c2cc(C)nc3c(-c4ccccc4)cnn23)c1N	0%
CC(C)CC1(C)NC(=O)NC1=O (stereo not drawn)	19%
COc1ccc(Cl)cc1C(=O)Nn1c(C)nc2ccccc2c1=O	5%
OCCc1ccc(-c2ccc(Cl)cc2)o1	11%
COc1ccc(S(=O)(=O)Cc2ccc(C(=O)NCc3ccccn3)o2)cc1	5%
CC[C@@H](Nc1ncnc2nc[nH]c12)C(=O)O	-1%[11.4 µM]
Cc1onc(-c2ccccc2Cl)c1C(=O)NCCCN1CCOCC1	4%
COc1cccc(C(C(=O)NC(C)(C)C)N(C(=O)CCC(=O)Nc2cc(C)on2)C(C)C)c1OC (stereo not drawn)	4%
Cc1ccc(C2CC(=O)c3cnc(N4CC(C)CC(C)C4)nc3C2)cc1 (stereo not drawn)	5%
Cc1ccc(S(=O)(=O)Nc2ccccc2F)cc1C(=O)NCCCN1CCCC1=O	3%
CCCC(C)C(=O)Nc1ccc(Cl)cn1 (stereo not drawn)	-1%
COc1ccccc1C(c1nnnn1Cc1ccccc1)N1CCN(c2nc3ccccc3s2)CC1 (stereo not drawn)	8%
Cc1cc(C)nc(-n2nc(C)cc2NC(=O)c2ccc3c(c2)OCO3)n1	3%
CC(O)c1cccc(NC2=CC(=O)CC(C)(C)C2)c1 (stereo not drawn)	1%
C=Cn1nc(C)c2ccccc2c1=O	11%
O=C(CSc1ncn[nH]1)c1ccc2c(c1)OCCO2	3%
Cc1ccc(OCC(=O)n2cnnc2N)c(C)c1	2%
O=C(CN1C(=O)C2C3C=CC(C3)C2C1=O)N1CC(=O)N(CCc2ccccc2)C(=O)C1 (stereo not drawn)	3%
O=C(O)C1C2C=CC(C2)C1C(=O)NCCc1ccncc1 (stereo not drawn)	-3%
O=C(O)CCN1C(=O)C(=C2CCCCCC2)SC1=S	-22%
COc1ccc(-c2nc3ccccc3c(=O)n2CCCN2CCOCC2)cc1	2%
Cc1ccc(-c2nnc(N3CCOCC3)c3ccccc23)cc1S(=O)(=O)NCC1CCCO1 (stereo not drawn)	-19%
COc1cc(NC(=O)c2ccco2)c(OC)cc1NC(=O)CCC(=O)Nc1cc(C)ccc1C	?
CCc1nnc(NC(=O)CSc2nnc(Cc3ccccc3)n2Cc2ccccc2)s1	6%
COc1ccc(-n2c(SCC(=O)Nc3ccc4c(c3)OCO4)nc3ccccc3c2=O)cc1	0%
COc1ccc(C(=O)N2CCC[C@@]3(CCN(Cc4cc(C(F)(F)F)cc(C(F)(F)F)c4)C3)C2)cc1	1%
Cc1ccc(Cn2ccc(NC(=O)c3cc(-c4cccc(Cl)c4)on3)n2)cc1	78%[activator]
CCCCCCOc1ccc(N2C(=O)CC(N3CCC(C(=O)OCC)CC3)C2=O)cc1 (stereo not drawn)	-9%
O=c1c2cnn(-c3ccccc3)c2ncn1Cc1ccccc1	-10%
N#Cc1nc(COc2ccc(F)cc2)oc1N1CCN(Cc2ccccc2)CC1	-5%
CCOC(=O)CNC(=O)CSc1nnc(Cn2c(=O)sc3ccccc32)n1C	6%
COc1ccc(OC)c(NC(=O)CSc2nnc(CNc3ccc(F)cc3)o2)c1	-2%
CCNc1nc(N2CCOCC2)nc(N(c2ccccc2)c2ccccc2)n1	11%
O=C(Nc1ccccc1)c1ccccc1OCC(O)CN1C(=O)c2ccccc2S1(=O)=O (stereo not drawn)	25µM*
NCCNC[C@H](O)CO	9%[11.4 µM]
COc1ccc(-c2ccc(OC)cc2C(=O)O)cc1	2%
C=CCn1cnc2c(c1=O)c1nc3ccccc3nc1n2-c1ccccc1	?
CC1(C)Cn2c(nnc2-c2cccc(O)c2)S1	-4%
CCS(=O)(=O)N1CCN(S(=O)(=O)c2ccc(F)cc2)CC1	-8%
COCCCNC(=O)Cn1nnc(-c2ccc(NC(=O)c3ccccc3OC)cc2)n1	?
O=C1Nc2ccccc2SC(c2ccccc2)C1O (stereo not drawn)	?
Cc1ccc(S(=O)(=O)N2CCOCC2)cc1C(=O)NCc1ccc(F)cc1	6%
CC(=O)Nc1ccc(NC(=O)CN2CCCC(C)C2)c(Cl)c1 (stereo not drawn)	0%
CCCc1nc2ccccc2c(C(=O)OCc2nnc(-c3cc(OC)c(OC)c(OC)c3)o2)c1CC	?
CC(C)=CCC1=C(O)c2ccccc2C(=O)C1=O	0%
O=C(O)C(Cc1ccccc1)n1cnnn1 (stereo not drawn)	6%
COC(=O)c1ccc(Cn2cc(Cl)cn2)cc1	-7%

Random excerpt: 3 compounds from above, in no set order.
SMILES	HSD17B inhib
CC(C)=CCC1=C(O)c2ccccc2C(=O)C1=O	0%
COC(=O)c1ccc(Cn2cc(Cl)cn2)cc1	-7%
O=C(O)C(Cc1ccccc1)n1cnnn1 (stereo not drawn)	6%

These rows are one share of the data; count on the stated rates, not on these rows.
